Calb biofilm kill: mixtures killing C. albicans biofilm; C. albicans biofilm persisters + clotrimazole, fluorescence viability; primary screen in compound mixtures of four per well; inhibition, % at 7.6 µM; actives 0.02% (n = 120,000); AID 1242;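 active = inhibition above 30.3% in the primary screen of four-compound pools, then above 30% when the compound was retested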;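 also: compounds exposed to preformed 24 h biofilms for 48 h; the number belongs to the whole pool; some results filed as inactive read as strong as hits; inactives centre near 12; 0% = biofilm with clotrimazole alone and 100% = kill control; retested singly at about 60 µM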
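Test system: C. albicans CAF4-2 wild-type biofilms; buffer or medium: RPMI/MOPS medium, pH 7.0; schedule: 24 h biofilm formation, then 48 h compound exposure, 37 °C; detection: Alamar Blue fluorescence; measure: percent inhibition of biofilm viability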
* = called active by the depositor. An excerpt (hit frequency here may not be typical).

mol	Calb biofilm kill
O=c1[nH]ncc(N2CCCCC2)c1Cl	8
COc1ccc(CNC(=O)C2CCCN2S(=O)(=O)c2ccc(Cl)cc2)cc1 (stereo not drawn)	11
CC(C)[C@@H]1CC[C@@H](C)C[C@H]1OC(=O)C[n+]1cc(-c2ccc(Cl)cc2)n2c1CCCCC2	13
Cc1cccc(-c2nc3c(c(SCC(N)=O)n2)CCCC3)c1	12
CCOC(=O)NN1C(=O)c2ccccc2NC1c1ccc(OC)cc1OC (stereo not drawn)	12
Cc1ccc(C(C(=O)NC(C)(C)C)N(Cc2ccco2)C(=O)Cn2nnc(-c3cccs3)n2)cc1 (stereo not drawn)	17
CCCCCc1cc(=O)oc2c(C(CCN3CCCCC3)c3cc(OC)c(OC)c(OC)c3)c(OC)cc(OC)c12 (stereo not drawn)	16
CC1OC(Oc2c(-c3cc(O)c(O)c(O)c3)oc3cc(O)cc(O)c3c2=O)C(O)C(O)C1O (stereo not drawn)	24
O=[N+]([O-])c1ncn(Cc2c(Cl)cccc2Cl)n1	18
CCCCc1ccc(NC(=S)N2CCN(c3ncccn3)CC2)cc1	15
Cc1ccccc1NC(=S)N(CCCN1CCOCC1)Cc1cccs1	11
COc1ccccc1C(=O)ON=C1c2ccccc2-c2ccccc21	18

Other records.
mol	Calb biofilm kill
Cc1ccccc1OCC(=O)Nc1ccc2c(c1)OCCO2	9
COCC(=O)NNC(=O)c1ccc(OC)cc1	13
COc1ccc(C2=NN(S(C)(=O)=O)C(c3cccs3)C2)cc1 (stereo not drawn)	3
CN(C)CCn1c(=O)n(-c2ccc(F)cc2)c(=O)c2c3c(sc21)CCCCC3	-5
O=C(Nc1ccccc1Cl)C1CC(=O)n2c(nc3ccccc32)N1 (stereo not drawn)	6
O=c1cc(COc2ncnc3c(Cl)cc(Cl)cc23)nc2sccn12	26
O=C(COC(=O)CCSc1ccccc1)NCc1ccccc1Cl	10
Nc1cc(=O)[nH]c(SCC(=O)Nc2cc([N+](=O)[O-])ccc2Cl)n1	9
O=C1CCCc2ccccc2N1	-1
O=C(/C=C/c1cccc([N+](=O)[O-])c1)N1CC[C@@]2(O)CCCC[C@H]2C1	20
O=C(/C=C/c1ccc([N+](=O)[O-])cc1)OCc1cnc(-c2ccccc2)o1	16
COC(=O)c1cc(OC)c(OC)cc1NC(=S)N1CCCC1	0

Structures from the list above with an aryl thioether with sulfur outside any ring:
mol	Calb biofilm kill
Cc1cccc(-c2nc3c(c(SCC(N)=O)n2)CCCC3)c1	12
O=C(COC(=O)CCSc1ccccc1)NCc1ccccc1Cl	10
Nc1cc(=O)[nH]c(SCC(=O)Nc2cc([N+](=O)[O-])ccc2Cl)n1	9

The list goes on:
mol	Calb biofilm kill
O=C(NNC1=NCCCCC1)c1cccc([N+](=O)[O-])c1	5
C#CCNC(=O)C1=C[C@@H](c2coc3ccccc3c2=O)[C@H](CCCO)[C@@H](OCC)O1	21
CCc1cc(C(=O)OC)c(NC(=O)CC2Nc3cc(C)c(C)cc3NC2=O)s1 (stereo not drawn)	13
O=C(CSc1nc2ccccc2c(=O)n1-c1ccc(F)cc1)Nc1ccc(Cl)c(S(=O)(=O)N2CCOCC2)c1	18
Cc1ccc2nc(N/C(=N/S(=O)(=O)c3ccc(F)cc3F)c3ccccc3)sc2c1	3
COc1cccc(C(=O)N2CCC(O)(c3cccnc3)CC2)c1	16
Cc1ccc(S(=O)(=O)Nc2cccc(-c3ccc4nnc(C)n4n3)c2)s1	13
O=C(COC(=O)CCC(=O)c1cccs1)Nc1ccccc1[N+](=O)[O-]	9
CCOC(=O)/C(C#N)=C/N=c1ccc(C)cn1C	4
Oc1ccc2ccccc2c1N=Nc1ccccc1F	9
CSc1ccccc1C(=O)N1CCN(c2cccc(Cl)c2)CC1	10
NC(=S)N/N=C/c1cc([N+](=O)[O-])ccc1Cl	13

Reprinted at random: two entries already listed, in no set order.
mol	Calb biofilm kill
CCc1cc(C(=O)OC)c(NC(=O)CC2Nc3cc(C)c(C)cc3NC2=O)s1 (stereo not drawn)	13
Oc1ccc2ccccc2c1N=Nc1ccccc1F	9

Remaining list, next part:
mol	Calb biofilm kill
O=c1cc(N2CCN(c3ccccc3Cl)CC2)[nH]c(=O)n1Cc1ccc(F)cc1	23
O=C(CCc1nnc(C2(c3ccc(Cl)cc3)CCC2)o1)NCCCn1cccn1	14
Cc1ccc(NC(=O)c2nsc(Cl)c2Cl)cc1	1
Cc1ccc(S(=O)(=O)N(C)C)cc1NC(=O)CSc1nnnn1-c1ccc(O)cc1	14
CCOc1ccccc1NC(=S)N(CCC(C)C)C1CCN(C(C)=O)CC1	15
O=S(=O)(Nc1ccc(Cl)cn1)c1cccc(S(=O)(=O)c2ccccc2)c1	16
CN(C)CCC(=O)N1c2ccccc2Sc2ccc(Cl)cc21	-5
COc1cc(C=C2C(=O)OC(c3ccccc3)OC2=O)cc(Br)c1O (stereo not drawn)	7
Cc1cccc(C=Nc2ccc3c(c2)oc2ccccc23)c1O	23
O=[N+]([O-])c1ccccc1CNC1CCCc2ccccc21 (stereo not drawn)	12
Cc1ccc(Oc2ncccc2NC(=O)CCCC(=O)O)c2c1CCC2	22
CCC1=C(OC(=O)N(CC)CC)N2C(=O)OC(=NCC(=O)OC)[C@]2(C)[C@H]2C1=CC[C@H]1C(=O)NC(=O)[C@H]12	11

The listing continues:
mol	Calb biofilm kill
Cc1cc(NC(=O)CCC(=O)N(c2ccccc2)C(C(=O)NC2CCCC2)c2ccccc2)no1 (stereo not drawn)	7
CC(=O)NC1=NN(C(C)=O)C(c2ccc(F)cc2)S1 (stereo not drawn)	-12
O=c1[nH]c(=O)c2ncc(-c3ccc(Cl)cc3)nc2[nH]1	6
O=C(O)c1cccc(S(=O)(=O)Nc2ccc3[nH]c(=O)[nH]c3c2)c1	12
Fc1cccc(CN2CCN(c3nc4nonc4nc3NC3CC3)CC2)c1	-9
O=C(Nc1c2c(nn1-c1ccc(F)cc1)CS(=O)(=O)C2)c1ccc(S(=O)(=O)N2CCOCC2)cc1	6
COc1ccc(OCC(=O)NNC(=O)c2cc3ccccc3o2)cc1	13
COc1cc(NC2CCCCC2O)c2nc(-c3ccc(Cl)cc3)ccc2c1 (stereo not drawn)	8
CC1(C(=O)NCc2ccc(Cl)c(Cl)c2)Oc2cccnc2NC1=O (stereo not drawn)	0
O=C(C(=O)N1CCN(c2ccccc2)CC1)c1c[nH]c2ccccc12	-2
Cc1nc(Nc2ccccc2C(F)(F)F)sc1C(=O)N(C)C	16
Cc1cccc(C)c1OC(=O)C(c1ccccc1)c1ccccc1	13

Next part:
mol	Calb biofilm kill
O=C(Cc1ccccc1)N/N=C/c1ccc(-c2ccc([N+](=O)[O-])cc2)o1	15
CCOc1ccccc1NC(=O)Cn1c(=O)n(-c2ccccc2)c(=O)c2oc3ccccc3c21	28
CS(=O)(=O)N(CC(=O)N/N=C/c1ccco1)c1ccccc1Br	20
COC(=O)CC1c2ccccc2S(=O)(=O)N1Cc1ccccc1 (stereo not drawn)	6
CC(C)CCNCC(O)CON=C1c2ccccc2-c2ccccc21 (stereo not drawn)	14
Cc1ccsc1/C=N/NC(=O)CNC(=O)c1cccc([N+](=O)[O-])c1C	11
CCc1ccc(NS(=O)(=O)c2ccc3[nH]c(=O)[nH]c3c2)cc1	-1
CN1C[C@@H]2C(c3ccc(Cl)nc3)C3(c4cccnc4)CC2(C3)[C@H]1c1ccccc1 (stereo partly drawn)	12
Cc1c(N(C(=O)Cc2cccs2)C2(C(=O)NC3CCCC3)CCCCC2)c(=O)n(-c2ccccc2)n1C	19
Oc1ccc(C2C(c3ccccc3)=NN=C(c3ccc(Cl)cc3)N2O)c(O)c1 (stereo not drawn)	7
O=C(Nc1ccc(O)c(-c2nc3ccccc3o2)c1)C1(c2ccc(Br)cc2)CCCC1	15
CC(=O)OCC(=O)NCC(=O)c1c[nH]c2ccccc12	7

Additional results
mol	Calb biofilm kill
CC(=O)NC(Cc1ccc(F)c(F)c1)C(=O)NC1CCN(c2nnnn2-c2ccccc2)CC1 (stereo not drawn)	14
CC(C)CNC(=O)CSc1nc2nn(-c3ccccc3)c(=O)c-2c2n1CCCCC2	5
O=C(CCS(=O)(=O)c1ccc(Cl)cc1)NCCc1c[nH]c2ccccc12	4
O=C(NNc1cccc(Cl)n1)C(F)(F)F	-2
COc1ccc(-c2c3c(cc(C)[n+]2[O-])oc2ccc(OC)cc23)cc1	6
Cc1c(Cl)c(-c2n[nH]c(=S)n2-c2ccccc2)nn1C	8
O=c1c2sccc2n(Cc2cccc(F)c2)c(=O)n1-c1ccc(F)cc1	3
CCCN(CCC)CCCNC(=O)CNC(=O)c1nn(-c2ccc(OC)cc2)c(=O)c2ccccc12	10
COC(=O)C(Cc1ccccc1)NC(=S)NC(=O)c1ccccc1 (stereo not drawn)	15
CN(C)/C(=N\OC(=O)c1ccccc1)c1nonc1N	20
CN(C)n1cnc2ccsc2c1=O	12
Cc1nc(C(=O)NCCC(C)C)sc1C1(C)CC(c2ccccc2)=NO1 (stereo not drawn)	7

(continued)
mol	Calb biofilm kill
O=C(Nc1cccc(Cl)c1)Nc1nnc(CSCCOc2ccc(Cl)cc2)s1	-5
COc1cccc2cc(C(=O)N3CCCCC3C)c(=O)oc12 (stereo not drawn)	6
Cc1cc(C)c2c(NC(N)=S)n[nH]c2n1	13
O=c1n(CCCN2CCN(c3cccc(Cl)c3)CC2)nc2ccccn12	12
N#CCCN(Cc1ccccc1)C(=O)Nc1ccc(F)cc1	23
CC(C)C(=O)Nc1nnc(SCC(=O)Nc2ccc3c(c2)OCO3)s1	8
COc1cnn(-c2ccc(Br)cc2)c(=O)c1SCc1ccccc1	11
COc1c(Cl)ccc(Cl)c1C(=O)NCc1ccco1	9
COc1ccc(NC(=O)COc2ccc(-c3nn(C)c(=O)c4ccccc34)cc2)cc1	0
CCOC(=O)C1=C(C)Nc2ccccc2N=C1N	19
Cc1no[n+]([O-])c1COc1cccc(/C=C2\N=C(c3ccccc3)OC2=O)c1	13
O=C(COC(=O)/C=C/c1ccc(Cl)cc1)NCCc1ccccc1	-2

Other records.
mol	Calb biofilm kill
O=S(=O)(NCC1CCCO1)c1ccc(-c2ccc(Cl)cc2)cc1 (stereo not drawn)	5
CCc1ccc(NC(=O)/C(C#N)=C\c2ccc(OC)c(C(=O)O)c2)cc1	10
O=C(Nc1ccc2oc(-c3cccnc3)nc2c1)c1ccc2c(c1)OCCO2	-4
CN(C)CCOC(c1ccccc1)c1ccccc1 (tested in a mixture with another compound)	13
CCC(=O)Nc1ccc(/C=C(\C(C)=O)C(=O)c2ccccc2)cc1	13
Cc1nc(C(F)(F)F)c(C(=O)N=CN(C)C)s1	12
COCc1cc(C)nc(N2CCCCC2)c1C#N	6
CCn1c(CC(=O)Nc2ccc(Cl)c(Cl)c2)nnc1SCc1ccc(Cl)cc1	10
Cc1cc(C)cc(NC(=S)NCC2CCN(C(C)c3ccccc3)C2)c1 (stereo not drawn)	16
N#Cc1c(C#N)c(O)c2ccccc2c1O	10
Cc1ccc2c(c1)C1CN(C)CCC1N2C(=S)Nc1ccc(Cl)cc1Cl (stereo not drawn)	12
Cc1ccc2c(CC(=O)NCCc3ccc(S(N)(=O)=O)cc3)coc2c1	16

The listing continues:
mol	Calb biofilm kill
COC(=O)CCN(C(=O)c1ccc(C)c([N+](=O)[O-])c1)c1ccccn1	10
CCOC(=O)Cn1nc(C)c(NC(=O)COc2ccc([N+](=O)[O-])cc2)c1C	9
COc1cc(NC(=S)NCCN2CCOCC2)cc(OC)c1	18
COc1ccc(S(=O)(=O)NCCCCCC(=O)O)cc1C(=O)O	-2
Cc1ccc2occ(/C=N/NC(N)=S)c(=O)c2c1	18
COCC(C)NC(=O)c1cc2cc(OC)ccc2[nH]1 (stereo not drawn)	14
Cc1cc(C)c(NC(N)=S)c(C)c1	9
CS(=O)(=O)N(CC(=O)N/N=C/c1ccccc1C(=O)O)c1cccc(Cl)c1Cl	5
O=C1c2ccccc2C(=O)N1CN(C(=O)c1ccccc1[N+](=O)[O-])c1ccc(F)cc1	20
Cc1coc(C)c1C(=O)CC1(O)C(=O)N(C)c2ccc(Cl)cc21 (stereo not drawn)	11
Cc1ccc(N=c2c([N+](=O)[O-])nn(-c3ccc4c(c3)OCCO4)n2O)c(Cl)c1	20
CN1C(=O)c2ccccc2C(C(=O)O)C1c1cccc(Cl)c1 (stereo not drawn)	7

Carrying on:
mol	Calb biofilm kill
COc1ccc(NC(=S)N(CCN(C)C)C(C)c2ccco2)cc1 (stereo not drawn)	19
CCOC(=O)CCNC(=O)N1CCCC(C(=O)c2cccc(Cl)c2)C1 (stereo not drawn)	6
O=C(O)/C=C/C(=O)N1CCc2ccccc21	9
O=C(c1ccc(SCc2cccc(Br)c2)c([N+](=O)[O-])c1)N1CCN(c2ccccn2)CC1	16
O=C(O)c1ccc(N/N=C/c2ccc(OC(=O)c3ccccc3Cl)cc2)cc1	10
O=C(CSCc1ccco1)c1cccs1	6
Clc1cccc(-c2nnc(-c3ccno3)o2)c1	18
Cn1cc(CN2CCCC(C(=O)c3ccc(-c4ccccc4)cc3)C2)cn1 (stereo not drawn)	23
O=C(CNC(=O)C1CCCCC1)OCC(=O)c1ccc(Cl)s1	-6
O=C(CN1CCN(C2CCCCC2)CC1)Nc1ccc(Br)cc1	-4

Reprinted from the entries so far for reference:
mol	Calb biofilm kill
Cn1cc(CN2CCCC(C(=O)c3ccc(-c4ccccc4)cc3)C2)cn1 (stereo not drawn)	23
O=C(CNC(=O)C1CCCCC1)OCC(=O)c1ccc(Cl)s1	-6
O=C(CN1CCN(C2CCCCC2)CC1)Nc1ccc(Br)cc1	-4

Screens from PubChem BioAssay.
